Sfp inh: Sfp phosphopantetheinyl transferase inhibition. Q9F4F7. Biochemical Sfp PPTase activity, qHTS. Potency, µM, without a hit: max response, negative = inhibition, most hits filed as inhibitors. 3.5% of 310,000 active. AID 1490; active means well fitted inhibition curve with a large enough effect; inconclusive means small, poorly fitted or top-dose-only effect, or another doubt; inactive means no such curve, though single readings can be large or run the other way;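 further: the enzyme is Sfp with the accession as filed and its product quenches rhodamine fluorescence; potency means the concentration at half of the fitted maximal effect; 0% = enzyme reaction without inhibitor and -100% = no enzyme wells; top concentration of the series not given in the record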
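Step 1, compound plus 15 nM Sfp-PPTase, 15 min, room temperature. Step 2, add rhodamine-CoA (5 uM) and BHQ-2-YbbR (12.5 uM). Step 3, read 525/598 nm fluorescence at 0 and 30 min.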
D2 PAM: human D2 receptor positive allosteric modulation; P14416; DiscoveRx D2 beta-arrestin cells, luminescence, 90 min; 100% = 57 uM dopamine signal; potentiation, % (test concentration not listed); 0.23% of 360,000 active; active = potentiation of 50% or more; inconclusive = 30% to 50%; inactive = 30% or less;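 further: compound concentration not given in the record; tested on top of an EC20 dose of dopamine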
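PathHunter beta-arrestin assay in DiscoveRx D2 cells. Compounds were added with an EC20 of dopamine (50 nM final) for 90 min at 37 deg C. Luminescence was read 1 h after detection reagent, with 57 uM dopamine as the EC100 control.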
Six1-Eya2 inh: Six1/Eya2 interaction inhibition. AID 651725. 0.56% of 360,000 active. activity change, % (no concentration beside the values). Q15475+O00167. AlphaScreen GST-Six1/His-Eya2 binding, biochemical; active compounds read low; control for the full effect not named in the record; in the data active = activity change below about -65%; inconclusive = about -30% to -65%; inactive = above about -30%; further: on the % scale 0 is the no-effect control and ±100 the full control effect
Target sequence (O00167 whole entry, looked up): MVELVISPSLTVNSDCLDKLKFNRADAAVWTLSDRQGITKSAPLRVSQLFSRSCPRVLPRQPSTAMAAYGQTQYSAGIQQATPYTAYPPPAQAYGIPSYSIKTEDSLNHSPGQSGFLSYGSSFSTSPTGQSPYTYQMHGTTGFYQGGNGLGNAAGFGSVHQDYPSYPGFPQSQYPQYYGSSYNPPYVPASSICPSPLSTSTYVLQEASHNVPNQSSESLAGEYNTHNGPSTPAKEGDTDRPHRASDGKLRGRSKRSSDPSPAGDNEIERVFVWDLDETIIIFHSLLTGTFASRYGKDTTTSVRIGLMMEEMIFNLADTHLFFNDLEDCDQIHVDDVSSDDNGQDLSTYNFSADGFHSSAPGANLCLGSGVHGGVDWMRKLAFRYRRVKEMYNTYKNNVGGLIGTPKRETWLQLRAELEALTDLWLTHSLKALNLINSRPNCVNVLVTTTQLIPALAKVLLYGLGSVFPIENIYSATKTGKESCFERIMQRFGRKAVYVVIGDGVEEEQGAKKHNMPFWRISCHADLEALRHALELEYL
Target sequence (Q15475 whole entry, looked up): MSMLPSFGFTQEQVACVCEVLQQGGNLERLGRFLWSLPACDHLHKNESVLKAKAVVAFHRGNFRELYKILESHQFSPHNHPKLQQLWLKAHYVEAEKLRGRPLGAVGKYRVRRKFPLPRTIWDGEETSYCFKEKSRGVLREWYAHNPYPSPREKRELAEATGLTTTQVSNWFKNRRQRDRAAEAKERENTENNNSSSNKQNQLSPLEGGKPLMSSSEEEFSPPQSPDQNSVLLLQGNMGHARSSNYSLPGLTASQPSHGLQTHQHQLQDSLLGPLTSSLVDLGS
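AlphaScreen luminescence read after one hour at 37 °C in darkness. Pin-transferred compounds met GST-Six1 and His-Eya2 protein (5X stock 250 nM/500 nM) plus glutathione donor and Ni-chelate acceptor beads (5X, 50 ug/mL).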
D2 agonist: agonists of human D2 dopamine receptor (beta-arrestin) | activation, % (no concentration beside the values) | DiscoveRx PathHunter D2 beta-arrestin, luminescence, 90 min; 100% = 57 uM dopamine signal | 0.084% of 360,000 active | AID 624465 | P14416; in the data active = activation above about 40%; inconclusive = about 15% to 40%; inactive = below about 15%; further: compound concentration not given in the record; the text of the record calls up to 30% inactive
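DiscoveRx PathHunter D2 beta-arrestin cells (2,100/well) attached overnight, then compound-stimulated 90 min at 37 C in HBSS/10 mM HEPES/0.1% Tween-20 buffer; beta-galactosidase complementation read by luminescence after 1 h at ambient temperature. Dopamine 57 uM final (EC100) as control.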
TRPV1 PAM: enhances activation of the human vanilloid receptor TRPV1 | Q8NER1 | 0.02% of 320,000 active | AID 540277 | TRPV1-expressing cells, Fluo-8 calcium influx, capsaicin EC20 potentiation; host cell line not named in the record; control for the full effect not named in the record | potentiation, % at 8.33 µM; active means potentiation above 80%; inconclusive means 30% to 80%; inactive means below 30%; further: 0% is about no effect
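Cells expressing TRPV1 were dye-loaded with Fluo-8 and read kinetically: 10 s baseline, 3 min after compound (agonist portion), then 2 min after EC20 capsaicin (allosteric enhancer portion). Calcium-bound dye fluorescence at 480/520 nm.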
CtBP-E1A inh: CtBP/E1A binding inhibition; AlphaScreen GST-E1A/His-CtBP binding, 1536-well; active compounds read low; control for the full effect not named in the record; activity change, % (concentration not given with the values); 0.49% of 340,000 active; AID 651724; in the data active means activity change below about -65%; inconclusive means about -30% to -65%; inactive means above about -30%; further: on the % scale 0 is the no-effect control and ±100 the full control effect
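AlphaScreen with 125 nM GST-E1A and 125 nM His-CtBP (5X stocks) in Tris pH 8.0, 300 mM NaCl, BSA, Tween 20, TCEP. Compounds preincubated 2 h at 37 deg C, then glutathione donor/nickel acceptor beads added for 1 h at 37 deg C in dark.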
PINK1 expr mod: changes PINK1 expression | PINK1 immunofluorescence, high-content cytometry, 24 h | Potency, µM (series often up to 76.6 µM), without a hit: at the highest dose activation (PINK1 increase), hits mostly activators | 0.2% of 410,000 active | AID 624263; active = well fitted activation curve with a large enough effect; inconclusive = small, poorly fitted or top-dose-only effect; inactive = flat fitted curve, though single readings scatter; cell line not stated here;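 further: potency means the concentration at half of the fitted maximal effect; % of control where 0% means no effect; nearly all actives have a fitted effect of over 65% in size; a mitochondrial uncoupler was the plate control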
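Cells are seeded, rested 12 hours, then given compound at five concentrations or DMSO for 24 hours. After fixation, blocking and antibody staining, PINK1 amount and mitochondrial localization are scored; CCCP serves as control.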
Starred values were filed as active, the others as inactive; ? = inconclusive; / = no result given; & = joins results of further samples; [ ] = remark or other dose.

canonical_smiles	Sfp inh	D2 PAM	Six1-Eya2 inh	D2 agonist	TRPV1 PAM	CtBP-E1A inh	PINK1 expr mod
Cc1cc(NC(=O)CSc2ccc(F)cc2)no1	14.0%	-2.9	8.8	-7.7	-0.7	-2.1	1.0%
COc1ccc(C(=O)NCc2nnc(SCC(=O)NC3CCCCC3)o2)cc1	7.5%	-4.2	-2.3	-4.5	-3.2	5.8	-0.8%
CC(C)(C)c1ccc(OCCC(=O)OCC(=O)NCc2ccccc2)cc1	/	-8.6	1.6	-2.1	-2.6	12.2	1.8%
COc1ccc(CN(C)C(=O)c2ccc(COc3ccccc3)cc2)c(OC)c1	-5.9%	1.4	-2.0	6.2	21.2	-0.4	-1.0%
CCOC1=C2[C@@H](CN(S(=O)(=O)c3ccc(C)cc3)[C@H]2c2ccc(CC)cc2)[C@H]2C(=O)N(c3ccccc3)C(=O)[C@H]2C1	/	-1.8	-0.9	-2.1	/	2.7	0.1%
OC(c1ccc(F)c(F)c1)c1ncc(-c2ccc(Cl)cc2)[nH]1 (stereo not drawn)	/	-11.5	-19.8	2.7	/	-4.8	4.6%
O=C(c1ccc(=O)oc1)N1CCN(C(c2ccccc2)c2ccccc2)CC1	0.3%	-12.6	0.8	-3.1	-13.8	0.0	-6.1%[38.3 µM]
CCc1ccc(NC(=O)C/C(C)=N/NC(=O)COc2ccc(C)cc2Br)cc1	-1.3%	-9.1	-0.3	2.8	-1.3	1.2	5.8%
O=S(=O)(NC1CCN(Cc2ccccc2)CC1)c1cccc2cccnc12	25.7%	-17.1	-6.7	-1.8	-4.2	3.0	17.0%[38.3 µM]
Cc1ccc(S(=O)(=O)NCC2CCC(C(=O)NCc3ccco3)CC2)cc1 (stereo not drawn)	5.3%	12.7	4.0	0.7	-21.2	2.6	10.6%
COc1cc(/C=N/NC(=O)c2cccc(S(=O)(=O)N3CCCCC3)c2)cc(Br)c1O	-1.6%	-4.8	-28.2	-2.1	-12.1	-20.2	5.1%
CC(C)CN(C(=O)COC(=O)C12CC3CC(CC(O)(C3)C1)C2)c1c(N)n(Cc2ccccc2)c(=O)[nH]c1=O	/	-0.3	4.4	-6.6	/	-19.3	1.6%
COc1ccc(-c2csc(NC(=O)CN3C(=O)NC4(CCCC4)C3=O)n2)cc1OC	/	24.7	-4.3	4.0	-0.5	-11.5	0.0%
CNC(=O)CSc1nc(-c2ccccc2)c(-c2ccccc2)[nH]1	19.3%	-8.5	-21.4	-4.1	-11.5	-1.9	-13.4%[38.3 µM]
N/C(=N\NS(=O)(=O)c1ccc(Cl)cc1)c1ccccn1	/	-5.2	6.0	-5.5	/	-11.0	4.2%
CCOC(=O)c1cc(C#N)c(SCC(=O)Nc2ccc(C(C)=O)cc2)[nH]c1=O	-1.6%	-0.4	-11.0	-4.4	7.3	-9.4	2.8%
Cc1n[nH]c(C)c1CN(C)C(=O)C1CCC(=O)N(CC2CCCCC2)C1 (stereo not drawn)	11.8%	18.7	10.3	1.0	-15.1	-3.6	-0.8%
Cc1nn(C)c(C)c1S(=O)(=O)N1CCC(C(=O)NC(C)c2ccccc2)CC1 (stereo not drawn)	4.0%	-5.9	6.5	0.1	1.5	5.3	1.3%
C[C@@H]1CN([C@@H](C)CO)C(=O)c2cc(NC(=O)c3ccccc3)ccc2O[C@@H](C)CCCCO[C@@H]1CN(C)Cc1ccc(C(F)(F)F)cc1	/	-5.0	-26.5	-4.3	/	-7.5	1.2%
Cc1cccc(C)c1NC(=O)CNC(=O)c1cncc(Br)c1	0.1%	0.1	0.4	-1.7	-10.4	2.6	1.0%
COc1cccc(-c2cnc3c(NC(C)=O)cc(-c4cccc(NS(C)(=O)=O)c4)cn23)c1	/	10.8	?	11.7	/	?	0.5%
CC(=O)C1=CCC(c2ccccc2Cl)N(S(=O)(=O)c2ccc(C)cc2)C1 (stereo not drawn)	/	-5.1	1.6	-1.9	/	-12.4	0.3%
COc1ccc(NC(=O)NN(C(=O)c2ccccc2)C(C)(C)C)cc1	9.6%	0.9	-0.1	-1.1	14.4	-1.7	-1.0%
COc1ccccc1C(=O)COC(=O)c1cnc(C)cn1	/	-23.1	28.3	-5.0	3.4	-3.7	2.5%
COc1ccc(Cc2nnc(NC(=O)CS(=O)(=O)c3ccccc3)s2)cc1OC	-4.1%	-6.2	6.6	-2.5	-1.4	3.8	-0.4%
CCOC(=O)c1cnc(SCC(=O)N2CCC(C(N)=O)CC2)nc1N	-22.8%	-4.4	5.3	-9.5	-3.0	10.6	0.0%
COc1ccccc1NS(=O)(=O)c1ccc(NC(=O)CCNC(=O)c2ccco2)cc1	-0.4%	-11.0	-2.3	0.8	12.4	-10.6	2.2%
Cc1onc(-c2c(Cl)cccc2Cl)c1/C(N)=N/OC(=O)C(C)(C)C	?	1.9	18.6	-3.4	-1.2	31.2	3.9%
COc1nc(OC)nc(Oc2ccc([N+](=O)[O-])cc2Cl)n1	8.1%	-14.8	?	0.7	4.9	?	1.7%
Cc1ccccc1CNCc1ccc2c(c1)OCO2	?	-18.6	9.9	-1.2	-31.5	-4.6	0.7%
O=C(c1cccc(C(F)(F)F)c1)N(c1ccccn1)C1CCCCC1	8.1%	-6.0	2.3	1.1	-27.6	8.8	3.6%
CC(=O)Nc1ccc(C2=NN(Cc3nnc(-c4ccccc4)o3)C(=O)SC2)cc1	7.6%	-3.3	-21.4	-0.6	?	-10.2	0.0%
CC(=O)Nc1ccc(S(=O)(=O)NCC(=O)OCC(=O)N2CCCc3ccccc32)cc1	-6.9%	-7.6	-10.3	-1.8	-4.7	-1.5	-0.9%
Cc1cccc(C)c1NC(=O)C(NS(=O)(=O)c1cccs1)c1ccccc1 (stereo not drawn)	-6.6%	-7.7	13.2	-2.0	-5.0	0.8	2.8%&4.2%
O=C1COc2ccc(C(=O)COC(=O)c3ccc4ccccc4n3)cc2N1	-0.7%	0.0	2.7	-3.2	-2.3	-1.6	0.3%
COc1ccc(NC(=O)C2C3CCC4C(CCC32)C4(Cl)Cl)cc1 (stereo not drawn)	3.7%	-20.3	7.3	0.4	-9.9	6.7	1.7%
O=C(CCc1nnc(Cc2ccc(-c3ccccc3)cc2)o1)N1CCCC1	17.4%	-2.5	4.9	2.1	2.0	-1.1	0.3%
Cc1ccc(C2=NN(C(=O)CCC(=O)O)C(c3cccc([N+](=O)[O-])c3)C2)cc1 (stereo not drawn)	5.4%	-2.4	7.1	-3.7	-2.1	-9.3	4.0%
CC(OC(=O)CNC(=O)c1cccc(F)c1)C(=O)NC1CCCCC1C (stereo not drawn)	/	-0.6	10.1	-2.5	12.6	6.3	0.4%
CN1OC(c2ccccc2)=C(CO)C1c1ccccc1 (stereo not drawn)	9.5%	-3.3	-1.0	-2.0	5.8	-1.3	0.9%
CCOC(=O)C1C(=O)C(C(C)=O)C(=O)CC1CC(C)SCC (stereo not drawn)	-11.5%	13.3	6.9	-2.1	-3.6	-4.2	/
COc1ccc(-c2cn3cccnc3n2)cc1NS(=O)(=O)c1ccccc1	-4.9%	-0.2	-7.2	3.9	-0.5	0.6	2.2%
O=c1c(/C=N\NS(=O)(=O)c2ccccc2)coc2ccc(Cl)cc12	-11.0%	28.0	1.2	-4.4	-16.4	-1.2	-1.5%
CCCCn1c2nc3ccccc3nc2c2c(=O)n(-c3ccccc3)cnc21	-27.2%	-5.8	2.6	1.4	-5.2	-21.6	1.8%
COC(=O)C1=C(C)NC=C([N+](=O)[O-])C1c1ccc(OC)cc1 (stereo not drawn)	14.1µM*	-3.7	5.4	-2.3	11.8	5.4	3.5%
CN1C(=O)C(=O)/C(=C(/O)c2ccc(Br)cc2)C1c1ccc(F)cc1 (stereo not drawn)	19.6%	6.4	-6.4	2.5	-4.8	3.9	3.6%
COc1ccc(/C=N/Nc2cn[nH]c(=O)c2Cl)cc1	8.5%	2.2	-6.7	1.5	-27.7	-4.9	-0.3%
CCOC(=O)c1cnc(-n2nc(C)cc2C)nc1NNc1nc(-c2ccccc2)cc(-c2ccccc2)n1	4.2%	-10.7	7.1	0.1	5.6	0.2	?
CCOc1cc(C)c(Cl)cc1S(=O)(=O)N1CCCC1	8.9%	-4.8	20.1	3.3	5.7	1.6	-0.6%
Cc1ccc(NC(=O)CCC(=O)NNC(=O)COc2ccc([N+](=O)[O-])cc2)cc1C	2.8%	-8.3	-0.5	1.7	29.2	-3.7	5.2%
CC1CCCCC1NC(=O)CN1CCC(O)(c2ccc(F)cc2)CC1 (stereo not drawn)	7.4%	-9.8	2.6	-0.3	-3.5	3.5	7.2%[38.3 µM]
CSc1c(CC(=O)NCCO)n(C)c2ccccc12	0.5%	2.3	4.2	-0.3	-9.5	2.4	/
COC(=O)c1ccc2c(=O)n(Cc3ccc4c(c3)OCO4)c(SCC(=O)N3CCCC3)nc2c1	7.3%	-8.7	-3.0	-3.5	3.6	1.4	-0.7%
COc1cc(C(=O)c2cc3c(cc2C)OCO3)cc(OC)c1OC	/	9.5	-9.0	1.9	/	1.0	9.6%
CC1CC(=O)Nc2ccccc2N1C(=O)Nc1ccccc1 (stereo not drawn)	11.6%	-5.2	8.6	-3.2	/	-3.2	0.8%
CCN1CCN(C(=O)C2CCN(c3nnc(-n4c(C)ccc4C)s3)CC2)CC1	9.2%	-3.4	-4.7	2.1	9.5	1.6	4.8%
O=C(Nc1nnc(-c2ccccc2F)s1)c1cccnc1	-1.8%	-6.3	2.1	-3.3	-7.7	5.4	1.0%
CCCCCCC1CC(CCC(=O)Nc2ccc([N+](=O)[O-])cc2)C(=O)O1 (stereo not drawn)	8.3%	2.9	-1.1	5.8	8.5	2.1	9.1%
Nc1ncc(-c2ccccc2)c(-c2ccc(OCc3ccccc3)cc2O)n1	21.1%	-3.3	-2.8	-0.2	12.7	-14.2	1.0%

Compound activity deposited in PubChem by National Center for Advancing Translational Sciences (NCATS).
